Screening data as filed in PubChem.
SV40 large T antigen = TAg ATPase/helicase activity blockers – biochemical (AID 1903); SV40 large T antigen ATPase/helicase inhibition assay; higher % means a stronger effect; inhibition, % at 20 µM, or IC50 in µM where a hit was titrated; 0.39% of 310,000 active; in the data active = a potency from the dose series; note: strong numbers were not always called active
LYP inhibition = inhibitors of LYP phosphatase, biochemical, fluorescence intensity, uHTS (AID 1779); 0.054% of 290,000 active; inhibition, % at 11.5 µM; hits with a dose series show IC50 in µM; recombinant LYP phosphatase, fluorescence intensity; higher % means a stronger effect; in the data active = inhibition above about 50%;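 note: plate controls were vehicle with enzyme for no effect and no enzyme for full effect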
GPR35 antagonists = GPR35 antagonists blocking zaprinast-driven arrestin recruitment, primary screen, imaging, U2OS, beta-arrestin-GFP, zaprinast agonist (AID 2058); inhibition, % at 10 µM, or IC50 in µM where a hit was titrated; 0.052% of 290,000 active; U2OS GPR35 beta-arrestin-GFP translocation imaging, zaprinast antagonism; higher % means a stronger effect;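 active = inhibition of at least 50% with at least 30 cells and total cytoplasm GFP at most 10,000,000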
NS5 inhibitors = flavivirus cap methylation enzyme inhibition – biochemical, confirmation dose response, primary screen (AID 588689) | one-dose inhibition, % at 25 µM; IC50 in µM for titrated hits | Dengue-2 NS5 methyltransferase capping enzyme assay, biochemical; higher % means a stronger effect | 0.3% of 340,000 active; in the data active = a potency from the dose series
Rac1 GTP hydrolysis = MgcRacGAP GTPase-activating activity inhibitors, confirmation, biochemical, ADP Hunter fluorescence | AID 624330 | MgcRacGAP-stimulated Rac1 GTP hydrolysis, ADP Hunter fluorescence; higher % means a stronger effect; GST-tagged Rac1 F28L mutant substrate | 0.6% of 340,000 active | one-dose inhibition, % at 30 µM; IC50 in µM for titrated hits;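 active = first-screen hits whose inhibition reached a set limit at any dose in the follow-up dose series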;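 note: fluorescence reports GDP produced by GAP-driven GTP hydrolysis; strong numbers were not always called active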
Starred values were filed as active, the others as inactive; x = not tested or not shown; & = joins results of further samples. Some of the compounds tested; count on the stated rates, not on these rows.

entry	GPR35 antagonists	LYP inhibition	SV40 large T antigen	Rac1 GTP hydrolysis	NS5 inhibitors	smiles
1	-9%	-1%	2%	8%	1%	CCOC(=O)c1ccc(-c2ccc(C3Nc4ccccc4C(=O)N3O)o2)cc1 (stereo not drawn)
2	x	x	25%	91µM*	-9%	O=c1c(-c2ccc(O)cc2)coc2cc(O)ccc12
3	9%	-5%	16%	1%	0%	COc1nsnc1NS(=O)(=O)c1ccc(NC(=S)NC(=O)c2ccncc2)cc1
4	1%	-7%	1%	15%	-3%	Cc1nc(-c2ccccc2)c(-c2ccccc2)[nH]1
5	17%	-6%	11%	4%	-6%	O=C(O)C[C@@H](O)C(=O)O
6	-2%	0%	5.9µM*	14%	45%	O=c1cc2oc3cc(O)c(O)cc3c(-c3ccccc3[N+](=O)[O-])c-2cc1O
7	-8%	-4%	-1%&4%	8%	-6%	O=c1[nH]cnc2c1ncn2[C@H]1CC[C@@H](CO)O1
8	x	x	22%	-5%	-1%	O=C(O)/C=C\C(=O)O
9	6%	-6%	9%	10%	9%	Cc1nc2ccc(S(=O)(=O)NCC(=O)NCCN3CCCCCC3)cc2s1
10	20%	2%	2%	5%	9%	O=C(O)c1cc(NS(=O)(=O)c2cccc3ccccc23)ccc1O
11	6%	-4%	6%	0%	-10%	COC1=CC(=O)C[C@@H](C)[C@]12Oc1c(Cl)c(OC)cc(OC)c1C2=O
12	-5%	-6%	7%	9%	3%	CCOc1ccc2nc(S(N)(=O)=O)sc2c1
13	9%	-4%	8%	x	x	Cc1ccc(-c2csc(N=C(N)N)n2)c(C)c1
14	3%	8%	13%	8%	-5%	FC(F)Oc1ccc(NC(=S)NCc2nc3ccccc3[nH]2)cc1
15	16%&12%	4%&-6%	13%&11%	2%	1%	Cc1ncc([N+](=O)[O-])n1CCO
16	x	x	-1%	0%	1%	O=C(O)c1cc(=O)c2ccccc2[nH]1
17	0%	6%	3%	1%	-2%	CCOC(=O)C1=C(C)N(Cc2ccccc2)C(=O)NC1c1ccc(OC)cc1 (stereo not drawn)
18	x	x	7%	-1%	1%	CO[C@@]12[C@H](COC(N)=O)C3=C(C(=O)C(C)=C(N)C3=O)N1C[C@@H]1N[C@@H]12
19	3%	-2%	7%	2%	3%	Cn1c(=O)c2c(ncn2C)n(C)c1=O
20	13%	-4%	7%	10%	-1%	COc1cc(C(=O)Oc2c(CN3CCOCC3)cc(Cl)c3cccnc23)cc(OC)c1OC
21	x	x	9%	2%	37%	CN1[C@@H]2CCC[C@H]1CC(NC(=O)c1nn(C)c3ccccc13)C2 (stereo partly drawn)

Another view of part of the listing above.
Value order – GPR35 antagonists | LYP inhibition | SV40 large T antigen | Rac1 GTP hydrolysis | NS5 inhibitors
17) CCOC(=O)C1=C(C)N(Cc2ccccc2)C(=O)NC1c1ccc(OC)cc1 (stereo not drawn)
 : 0% | 6% | 3% | 1% | -2%
2) O=c1c(-c2ccc(O)cc2)coc2cc(O)ccc12
 : x | x | 25% | 91µM* | -9%
6) O=c1cc2oc3cc(O)c(O)cc3c(-c3ccccc3[N+](=O)[O-])c-2cc1O
 : -2% | 0% | 5.9µM* | 14% | 45%
5) O=C(O)C[C@@H](O)C(=O)O
 : 17% | -6% | 11% | 4% | -6%

By substructure, the entries above containing a COOH group
entry	GPR35 antagonists	LYP inhibition	SV40 large T antigen	Rac1 GTP hydrolysis	NS5 inhibitors	smiles
5	17%	-6%	11%	4%	-6%	O=C(O)C[C@@H](O)C(=O)O
8	x	x	22%	-5%	-1%	O=C(O)/C=C\C(=O)O
10	20%	2%	2%	5%	9%	O=C(O)c1cc(NS(=O)(=O)c2cccc3ccccc23)ccc1O
16	x	x	-1%	0%	1%	O=C(O)c1cc(=O)c2ccccc2[nH]1
